# GIV-Gai inh: inhibitors of GIV peptide binding to Galpha-i3, primary screen, biochemical, fluorescence polarization, FITC-GIV GBA peptide, rat Galphai3; hit rate 0.42% among 210,000; Guanine nucleotide-binding protein G(i) subunit alpha-3 (Rattus norvegicus), P08753; 90 min; stronger effect = lower value; scaled: aluminum fluoride 0%, vehicle 100%; percent of control (FP), % (no concentration beside the values);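 active = replicate mean at 85% of control or lower, very high polarization wells dropped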;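 also: wells of about 15 µL received 100 nL stock; the first replicate is given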
# Target sequence (P08753 whole entry, looked up): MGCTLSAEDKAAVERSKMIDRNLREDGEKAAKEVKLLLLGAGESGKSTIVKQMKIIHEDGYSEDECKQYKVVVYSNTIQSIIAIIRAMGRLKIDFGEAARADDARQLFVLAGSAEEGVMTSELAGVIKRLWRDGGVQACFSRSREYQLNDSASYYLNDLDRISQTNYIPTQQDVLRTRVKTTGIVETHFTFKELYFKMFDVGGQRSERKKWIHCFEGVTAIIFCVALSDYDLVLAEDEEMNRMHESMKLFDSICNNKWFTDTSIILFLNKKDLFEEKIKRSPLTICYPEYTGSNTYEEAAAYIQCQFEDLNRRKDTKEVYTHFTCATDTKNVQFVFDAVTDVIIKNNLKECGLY
# HCMV UL50-53 inh: inhibitors of HCMV UL50-UL53 interaction, biochemical, HTRF; hit rate 0.15% among 190,000; inhibition, % (concentration not given with the values); HCMV UL50-UL53 nuclear egress complex (human cytomegalovirus); AID 1918969, 2023; normalized percent inhibition;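 active = both replicates at 50% or more, plus weaker picks with an unusually low signal ratio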;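 also: stock transfer was 100 nL into about 20 µL; 0% = negative control wells and 100% = wells with untagged competitor protein; inactives centre near -12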
# Sa growth 42C: S. aureus growth inhibition at 42 and 30 °C, primary screen, LtaS inhibitor project, RN4220, two temperatures. OD600, 20 h, 42 °C; stronger effect = lower value. AID 720641, 2013. relative growth, % (concentration not given with the values). hit rate 0.53% among 170,000;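 active = growth at 42 °C up to 50% and 20 or more points under that at 30 °C, or under 10% at both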;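 also: 300 nL library stock went into each well; scaled to the means of positive and negative controls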
# Sa growth 42C second temp: second read-out of Sa growth 42C, no call of its own (marks repeat the call); relative growth, %; measured here: growth at 30 °C;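 optical density after 20 h as mean of two plates; 100% = untreated growth and lower means inhibition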
# Numbers without * were called inactive; · = not tested or not shown.
SMILES,GIV-Gai inh,HCMV UL50-53 inh,Sa growth 42C,Sa growth 42C second temp
CCn1c(C)c(CCC(=O)NCc2ccccn2)c(=O)n2nc(-c3ccccc3OC)cc12,105,-4,88,86
CN(C)CCCNc1nc(-c2ccccc2)c2c(c1C#N)CC(C)(C)OC2,107,-12,108,91
CCn1c(CSc2nc3ccccc3s2)nnc1SCC(=O)OC(C)(C)C,·,12,113,101
O=C1/C(=C/c2c(N3CCCCC3)nc3ccccn3c2=O)SC(=S)N1Cc1ccco1,266,-17,97,93
CC(C)NC(=O)Cn1cc(C(=O)C(C)C)c2ccccc21,103,10,101,107
Cc1ccc(S(=O)(=O)c2ccccc2)cc1S,·,-7,40,33
Cc1ccc(NC(=O)C(C)Sc2nc3c(c(=O)[nH]2)CCCC3)c(C)c1 (configuration not stated),101,-21,·,·
COC(=O)c1sccc1-c1ccc(-c2ccn(S(=O)(=O)c3ccc(Cl)cc3)n2)o1,104,27,89,87
CS(=O)c1nc(-c2cccs2)cc(-c2ccccc2)c1C#N (configuration not stated),104,-28,89,85
Nc1ncc(N=Nc2cc(C(=O)O)ccc2Cl)s1,·,-24,82,63
Cc1ccc(C)c(NS(=O)(=O)c2ccc3c(c2)c(=O)n(C)c(=O)n3C)c1,97,-16,88,67
Cc1ccc(C(=O)NC(=O)CSc2nnnn2-c2ccccc2)cc1,108,-30,120,93
Cc1cccc(CCNC(=O)c2ccc3c(c2)nc2n3CCCCC2)c1,103,·,107,91
Cc1cc(C)n(-c2ccc(C(=O)OCC(=O)C(C)(C)C)cc2)n1,·,2,96,85
Cc1cc(Nc2cccc(Cl)c2C)n2nc(Cc3ccccc3)nc2n1,106,-3,88,72

# 3 compounds picked at random from those above, as already listed:
SMILES,GIV-Gai inh,HCMV UL50-53 inh,Sa growth 42C,Sa growth 42C second temp
Cc1ccc(S(=O)(=O)c2ccccc2)cc1S,·,-7,40,33
CN(C)CCCNc1nc(-c2ccccc2)c2c(c1C#N)CC(C)(C)OC2,107,-12,108,91
Cc1cc(Nc2cccc(Cl)c2C)n2nc(Cc3ccccc3)nc2n1,106,-3,88,72

# (listing goes on)
SMILES,GIV-Gai inh,HCMV UL50-53 inh,Sa growth 42C,Sa growth 42C second temp
CCc1nc(-c2ccc(C(=O)NCC(=O)Nc3cccc(F)c3)cc2)no1,104,-26,·,·
Cn1c(N=Nc2c(O)[nH]c(=O)[nH]c2=O)nc2c1c(=O)n(Cc1ccc(Cl)cc1)c(=O)n2C,102,-44,95,89
CC(CCc1ccccc1)NCc1ccc(C(=O)O)s1 (configuration not stated),103,·,98,92
CCCc1[nH]c(=O)cc2cc(OC)c(OC)cc12,77*,42,100,85
C=CCn1cc(/C=c2\sc3n(c2=O)C(c2ccc4c(c2)OCO4)C(C(=O)OCC)=C(C)N=3)c2ccccc21 (configuration not stated),111,2,·,·
O=C(CCc1ccccc1)Nc1ccc(NC(=O)c2ccco2)nc1,104,-20,99,82
Cc1ccc(NC(=O)Cn2nc(Cc3ccncc3)c3ccccc3c2=O)c(Cl)c1,107,-13,108,74
COc1ccc(/C=C2/SC(=Nc3ccccc3)NC2=O)c(OC)c1OC,109,-46,·,·
CC(C)(C)c1ccc(-c2nc(SCCCOc3ccccc3)n3[nH]c(=O)cc3n2)cc1,99,·,75,67
O=c1c2ccccc2c(-c2n[nH]c(=S)o2)nn1Cc1ccccc1,·,-59,88,87
O=C1NC2=C(C(=O)c3ccccc32)C(c2ccccc2)S1 (configuration not stated),112,-73,107,75
CCCCCn1c(SCC(=O)OCC)nc2cc(C(=O)N3CCC(C(N)=O)CC3)ccc2c1=O,101,-24,101,88
N=c1c2cnn(-c3ccccc3)c2ncn1/N=C/c1ccc(Cl)cc1,106,-36,86,87
CCc1nnc2sc(-c3cc(C)nc4ccc(Cl)cc34)nn12,104,-37,·,·
COC(=O)C1CCCN1S(=O)(=O)c1ccccc1N (configuration not stated),99,-20,107,93
Cc1cccc(OCOc2cccc(C)c2)c1,97,-2,86,105
Cn1c(=O)n(C)c2cc(N3CCCC3)c(NC(=O)Nc3ccc4c(c3)OCCO4)cc21,100,14,·,·
CC(C)(C)C(=O)COC(=O)c1ccc(C#N)cc1,·,-28,91,90
OCCN(Cc1ccccc1)CC1CC2C=CC1C2 (configuration not stated),109,-7,92,99
Cc1ccc(N2CC(C(=O)Nc3cccc(-c4noc(C5CCC5)n4)c3)CC2=O)cc1 (configuration not stated),100,-17,·,·
COc1ccc2[nH]c(=O)c(CN(Cc3ccc4c(c3)OCO4)Cc3nnnn3CCc3ccccc3)cc2c1,99,13,74,112
N#Cc1ccccc1C(C#N)c1ccccc1 (configuration not stated),104,-24,·,·
CCOC(=O)CNC(=O)CSc1nnc(Cc2cccn2C)n1-c1ccc(OC)cc1,95,-18,·,·
N#Cc1cccc(S(=O)(=O)NC2CC2)c1,·,-9,101,86
Cc1nc2ccc(S(=O)(=O)NC(C(=O)NCc3ccccc3Cl)C(C)C)cc2s1 (configuration not stated),98,-36,95,89
CN(Cc1cc(=O)[nH]c2ccccc12)C(=O)Nc1ccc2c(c1)OCO2,105,-11,·,·
CC(=O)Nc1ccc(Nc2nc3c(S(=O)(=O)c4cc(C)ccc4C)nnn3c3ccsc23)cc1,102,·,115,88
CC1CC(=O)N(Cc2ccc(F)cc2)c2ccccc2S1(=O)=O (configuration not stated),106,·,90,94
Cc1cc2oc(C(=O)N(Cc3ccc(N(C)C)cc3)Cc3ccco3)c(C)c2cc1Cl,103,-14,104,89
CN(C(=O)CN1C(=O)c2cc(Cl)c(Cl)cc2C1=O)C1CCS(=O)(=O)C1 (configuration not stated),·,-64,92,92
COc1ccc(/C=C/c2nc(C#N)c(N3CCCCC3)o2)cc1OC,105,-16,106,67
Cc1cc(S(=O)(=O)Nc2cc3c(cc2NCc2ccccc2)n(C)c(=O)n3C)ccc1F,101,-8,103,81
CC(=O)O[C@]1(C(C)=O)CCC2C3C[C@H](C)C4=CC(=O)CC[C@]4(C)C3CC[C@@]21C (some centres not stated),·,-13,100,86
C=C1N(c2ccc(Cl)cc2)C(=O)OC1(C)C,·,-9,98,90
CCN1CCN(c2ncc3c(n2)CCN(CC(C)C)C3)CC1,107,·,95,95
O=C(NCc1ccccc1)c1cccc(N2C(=O)CCS2(=O)=O)c1,111,-24,·,·
Cc1ccc(-c2nn(CO)c(=S)o2)cc1,103,-29,68,48
COc1ccc(C(=O)NCC(c2ccc3c(c2)OCO3)N2CCOCC2)cc1 (configuration not stated),104,·,85,86
Cc1ccc(S(=O)(=O)c2nc(-c3ccccc3F)oc2NCc2ccccc2)cc1,104,-10,106,90
CCCOc1ccccc1C(=O)N1CCC(c2nc3ccccc3s2)CC1,102,-19,94,62
CCCn1c(O)c(C=Nc2c(C)n(C)n(-c3ccccc3)c2=O)c(=O)[nH]c1=S,·,21,109,103
CC(=O)Nc1ccc(NC(=O)C2CC(=O)N(Cc3ccccc3)C2)cc1 (configuration not stated),·,2,94,96
CCOc1ccc(Nc2ncnc3c2c(-c2ccccc2)cn3-c2cccc(C)c2)cc1,110,·,105,95
COc1ccc(CNC(=O)C2Cc3cc(S(=O)(=O)N4CCCCCC4)ccc3N2C(C)=O)cc1 (configuration not stated),105,·,91,98
CN(c1ccccc1)C(CNS(=O)(=O)c1ccccc1)c1ccccc1 (configuration not stated),104,-15,97,80

# Looked up above:
# Sa growth 42C result of CCCOc1ccccc1C(=O)N1CCC(c2nc3ccccc3s2)CC1 stands at 94
# Sa growth 42C result of Cc1ccc(S(=O)(=O)c2nc(-c3ccccc3F)oc2NCc2ccccc2)cc1 stands at 106

# Further records:
SMILES,GIV-Gai inh,HCMV UL50-53 inh,Sa growth 42C,Sa growth 42C second temp
O=C(Nc1nc(-c2ccccc2)cc(-c2ccccc2)n1)c1ccccc1,103,8,·,·
COc1ccccc1Nc1c2c(nc3ccc(NC(=O)c4ccncc4)cc13)CCCC2,103,-54,·,·
COc1cccc(NC(=O)c2oc3ccccc3c2C)c1,101,17,101,120
CC1=C(C(=O)Nc2cccc(C(F)(F)F)c2)C2(CCCCC2)OC1=O,109,-28,99,92
COc1ccc2c(c1)c1c(c(=O)n(-c3ccccc3C)c(=O)n1C)n2C,108,·,98,90
CCOc1ccc(-c2nc(Cn3c(=O)cc(C)c4c(C)nn(-c5ccc(C)cc5)c43)c(C)o2)cc1,100,·,107,88
Cn1c(Cc2nn(C)c(=O)c3ccccc23)nnc1SCc1ccc(Cl)cc1Cl,99,-14,95,93
C/C(=N\NC(=O)c1ccoc1C)c1ccc(Cl)s1,106,-19,109,108
O=C(NC1CCCCCC1)c1ccc(Cl)c(S(=O)(=O)N2CCOCC2)c1,107,-7,119,86
CCCCc1nnc2sc(-c3cccc(N(C)C)c3)nn12,97,-18,·,·
Cc1noc(C)c1-c1nc(-c2c(Cl)cccc2Cl)no1,106,36,112,89
CCOc1ccccc1C(=O)OCCN1CCCC1=O,·,-15,106,86
COc1ccc(NC(=O)c2ccc(Cl)c(S(=O)(=O)N3CCc4ccccc4C3)c2)cn1,·,0,95,94
COc1cccc(CN2C(=O)c3ccccc3C(C(=O)O)C2c2cccc(OC)c2O)c1 (configuration not stated),105,-22,106,97
O=C(c1cccnc1)N1CCCC1c1ccccc1F (configuration not stated),108,-17,·,·
CCCCC1CCC(C(=O)NC(C(=O)O)C(C)C)CC1 (configuration not stated),97,-26,94,96
CCOC(=O)c1ccccc1NC(=O)NCc1noc2ccc(C)cc12,101,·,87,85
COc1cc(NC(=O)C2CCN(C(=O)c3sc4nc[nH]c(=O)c4c3C)CC2)cc(OC)c1OC,111,·,94,91
Cc1ccc(NC(=O)c2cccn2-c2nnc(N3CCCCC3)s2)cc1Cl,96,·,97,74
CCCCCOc1ccc(NC(=O)Cn2c(-c3nonc3N)nc3ccccc32)cc1,102,·,119,77
Cc1cc(Nc2ccc(Br)cc2)nc(C)n1,103,16,102,84
CCOc1ccc2c(=O)c(Oc3ccccc3Br)c(C(F)(F)F)oc2c1,105,-21,·,·
COc1ccccc1NC(=O)c1c(C)oc2c1CCCC2,101,3,100,97
c1ccc(Nc2nc(Nc3ccccc3)nc(N3CCc4ccccc4C3)n2)cc1,102,·,105,75
Cc1cc(Cl)ccc1NC(=O)CCC(=O)N1CCCCc2ccccc21,103,-24,·,·
CCc1ccc(N2COc3ccc(OC)cc3C2)cc1,111,11,111,92
CCOc1ccc2nc(SCC(=O)c3cc(C)n(C(C)COC)c3C)sc2c1 (configuration not stated),·,-3,87,99
CC(=O)OC[C@H]1O[C@@H](NC(=S)NN)[C@H](OC(C)=O)[C@@H](OC(C)=O)[C@@H]1OC(C)=O,108,12,104,99
Cc1noc(N)c1C#N,113,-5,72,83
NS(=O)(=O)c1ccc(CCNC(=O)CC(c2ccccc2)c2ccccc2)cc1,·,-18,86,85

# One compound at a time (already shown). Screens in order: GIV-Gai inh	HCMV UL50-53 inh	Sa growth 42C	Sa growth 42C second temp
# CCCCCOc1ccc(NC(=O)Cn2c(-c3nonc3N)nc3ccccc32)cc1 as listed: 102	·	119	77
# CCOc1ccc2nc(SCC(=O)c3cc(C)n(C(C)COC)c3C)sc2c1 (configuration not stated) as listed: ·	-3	87	99

# The results go on.
SMILES,GIV-Gai inh,HCMV UL50-53 inh,Sa growth 42C,Sa growth 42C second temp
Cc1ccc(CNC(=O)CN2C(=O)C3(SCC(=O)N3c3ccc(F)cc3)c3ccccc32)cc1 (configuration not stated),98,·,91,84
c1ccc(C2OCC3OC(c4ccccc4)OC3CO2)cc1 (configuration not stated),102,·,81,95
C/C(=N\NC1=NCCCCC1)c1ccccc1,99,-27,112,95
CC(C)C(=O)NC(C)c1nc(-c2ccccc2)no1 (configuration not stated),102,-23,91,79
Cc1cc(C(F)(F)F)c(C(=O)O)cn1,100,-6,100,94
COCc1[nH]c(=S)c(C#N)cc1C(=O)OC,100,-28,100,81
CCOC(=O)c1c(-c2ccc(C)cc2)csc1NC(=O)c1cc(-c2ccc(Cl)cc2)on1,101,-8,106,96
O=S1(=O)C[C@H](NC2CCCCC2)[C@@H](S(=O)(=O)c2cccs2)C1,96,0,·,·
O=C1CCN(c2ncc(C(F)(F)F)cc2Cl)CC1,108,-4,·,·
Cc1ccccc1OCCn1c(=S)[nH]c2ccccc21,109,·,92,92
COc1cccc(OC)c1C(=O)NCCc1sc(-c2cccc(F)c2)nc1C,109,·,99,92
CCc1ccc(N2C(=O)c3nccnc3C2=O)cc1,97,14,·,·
Cc1cc(NC(=O)CN2CCC(C)CC2)nc2c1c(=O)oc1ccccc12,107,-15,100,92
COC(=O)c1cnc(OC)[nH]c1=O,97,-12,·,·
C=CCn1cnc2c1c(=O)[nH]c(=O)n2C,112,·,89,91
COc1ccc(NC(=O)C(NS(=O)(=O)c2ccc3c(c2)CCCC(=O)N3)C(C)C)cc1 (configuration not stated),108,-15,·,·
Cc1ccc(NC(=O)C2CCN(S(=O)(=O)c3ccc4c(c3)CCCN4C(=O)C3CCC3)CC2)cc1,108,·,120,99

# Shown as a hit in GIV-Gai inh, among the entries above:
Compound	GIV-Gai inh	Sa growth 42C second temp
CCCc1[nH]c(=O)cc2cc(OC)c(OC)cc12	77*	85

# Assay outcomes: PubChem BioAssay, ICCB-Longwood Screening Facility, Harvard Medical School
